# CapD inh: CapD enzyme inhibition; purified CapD enzyme, fluorescence intensity read-out; active compounds read low; some hits fall short of the stated cut; z-score (no concentration beside the values); 140,000 compounds, 0.23% hits; AID 492967;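 active = z-score under -4 in either of two replicates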;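 note: stock transfer was 100 nL into about 40 µL; score is relative to mean and spread of the plate; one replicate is shown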
# AID504770: growth inhibitors of E. coli YBA685 in a screen for V. cholerae RctB (chromosome II replication) inhibitors. E. coli YBA685 rctB-dependent plasmid, OD600 growth, 3 h; active compounds read low. AID 504770. 130,000 compounds, 0.27% hits. z-score (concentration not given with the values);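 active = z-score under -2 on both plates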;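 note: wells of about 30 µL received 100 nL stock; score is relative to mean and SD of the test wells; the first replicate is given; strong numbers were not always called active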
# Active calls of the source: *; nt = not tested or not shown. No enrichment for hits. About 0.37% of those tested had a hit in this group.
# Second line of a record – CapD inh | AID504770
> Cc1ccc(-c2cn3c(n2)sc2cc(C(=O)N4CCC5(CC4)OCCO5)ccc23)cc1
 : 3.2 | -0.75
> Cc1cc(C)nc(SC/C(N)=N\O)n1
 : -0.98 | -0.6
> O=C(Nc1ccc(OC(F)(F)F)cc1)c1csc(-c2ccc(Cl)cc2)n1
 : 0.73 | nt
> Cc1ccc(N=Cc2nc(-c3cccc4ccccc34)oc2O)c(Br)c1
 : -0.25 | nt
> CCOc1c(Br)cc(/C=c2/sc3nc4ccccc4n3c2=O)cc1OC
 : -0.16 | nt
> COC(=O)c1cnc2sc3ccccc3n2c1=O
 : 114 | -0.55
> CCOC(=O)C1C(=O)NC(SCC(=O)Nc2cc(OC)c(Cl)cc2OC)=C(C#N)C1c1ccccc1OCC (centres undefined)
 : -0.18 | nt
> CN(c1ccccc1C(=O)N1CCN(c2cccc(Cl)c2)CC1)S(C)(=O)=O
 : 0.27 | 0.3
> Cc1ccc(Cl)cc1N1CCN(CCNS(=O)(=O)c2ccc3c(c2)C(C)(C)C(=O)N3C)CC1
 : -0.21 | -1.8
> Cc1ccccc1NS(=O)(=O)c1ccc2[nH]cc(C(=O)N(C)Cc3ccccc3)c(=O)c2c1
 : 0.29 | -1.1
> COC(=O)Cc1ccccn1
 : nt | 0.85
> COC(=O)C1=C(C(=O)OC)SC2(S1)C(C(=O)OC)=C(C(=O)OC)SC1=C2c2ccccc2N(C)C1(C)C
 : -0.28 | nt
> c1ccc(-n2cnc3cc(NCc4ccco4)ccc32)cc1
 : 80 | 0.1
> FC(F)(F)c1cc(-c2ccccn2)nc2cc(-c3ccccc3)nn12
 : -0.45 | -0.45
> Cc1ccc(S(=O)(=O)N2CC(=O)c3ccccc3-c3ccccc32)cc1
 : 0.65 | 0.2
> CC(C)(C)OC(=O)N1C(C(=O)O)COC1(C)C (centres undefined)
 : -0.48 | 0.05
> O=C(Nc1ncnc2sccc12)C1CCCCC1
 : nt | -0.95
> Cc1cccc(C(=O)N/N=C/c2ccc[nH]2)c1
 : -1.4 | -0.3
> O=c1c2c3c(sc2nc(SCc2ccccc2)n1Cc1ccco1)CCC3
 : -0.12 | -0.65
> O=C(Cc1ccc(-c2ccccc2)cc1)OCC(=O)N1CCCCC1
 : 0.37 | -0.15

# The closing 4 records of the part above are carried over, then new ones follow.
# Second line of a record – CapD inh | AID504770
> O=C(Nc1ncnc2sccc12)C1CCCCC1
 : nt | -0.95
> Cc1cccc(C(=O)N/N=C/c2ccc[nH]2)c1
 : -1.4 | -0.3
> O=c1c2c3c(sc2nc(SCc2ccccc2)n1Cc1ccco1)CCC3
 : -0.12 | -0.65
> O=C(Cc1ccc(-c2ccccc2)cc1)OCC(=O)N1CCCCC1
 : 0.37 | -0.15
> Cc1nc2cccc(C(=O)N3CCN(c4ccccc4)CC3)c2o1
 : 0.74 | -0.75
> Clc1ccc2c(Nc3ccccc3)ccnc2c1
 : 0.33 | 0.1
> NCCc1cc(O)c(O)cc1O
 : 0.005 | -0.1
> CSc1nnc(-c2ccc(C(C)(C)C)cc2)n1Cc1ccco1
 : 10 | -0.6
> COc1ccccc1-n1c(SC)nc2c(c1=O)C1(CCCCC1)Cc1ccccc1-2
 : 0.93 | nt
> N#Cc1ccc(C(=O)CSc2cccc[n+]2[O-])cc1
 : nt | -0.3
> N#Cc1sc2nccc(Nc3ccccc3)c2c1N
 : 8.8 | 0.2
> FC(F)(F)c1cccc(N2CCN(C3=Cc4ccccc4C3)CC2)c1
 : 2.4 | -1.6
> Cc1nc2c(ccc3nc(NC(=O)c4ccc(S(=O)(=O)N5CCCCCC5)cc4)sc32)s1
 : 3.1 | nt
> CCCCN1C(=O)c2ccc(C(=O)O)cc2C1=O
 : nt | 1.1
> Cc1cc2ccccc2nc1-c1ccccc1
 : -0.36 | -1.4
> Cc1ccc(S(=O)(=O)Nc2ccc(S(=O)(=O)Nc3cc(C)on3)cc2)cc1
 : -0.57 | nt
> COc1ccccc1-c1[nH]ncc1CNCc1ccccc1C
 : -0.18 | -0.95
> Cc1ccc(-n2nc3ccc(NC(=O)c4ccc5c(c4)OCCO5)cc3n2)cc1Cl
 : 54 | nt
> CCOC(=O)N1CCC(c2nc(C)sc2C(=O)NCc2ccc(C)cc2)CC1
 : 0.36 | -2.4
> Cc1nn(-c2ccccc2)c(-c2ccccc2)c1C(=O)O
 : nt | -0.85
> CCN(CC)c1ccc(Nc2cc(C)c(C#N)c3nc4ccccc4n23)cc1
 : 32 | -0.5
> CC(OC(=O)c1ccc2ncsc2c1)C(=O)Nc1ccc(S(N)(=O)=O)cc1 (centres undefined)
 : nt | 0.05
> CC1(C)CN(c2ccc(C(=O)c3ccccc3)cc2)C1=O
 : -0.24 | -1.1
> O=C(Cn1cnc2ccccc2c1=O)OC1CCCCC1
 : 0.15 | 0.45
> CC1CCCCN1C(=O)CSCC(=O)Nc1nc(-c2cccs2)cs1 (centres undefined)
 : -0.54 | 0.15
> COC(=O)Cc1nc(NC(=O)C2CCC2C(=O)O)sc1C (centres undefined)
 : 0.27 | -1
> CC(=O)N1CC(=O)Nc2ccc(C)cc2C1c1ccccc1 (centres undefined)
 : -1.5 | 1
> Cc1ccc(C(=O)NC2CC3CCCC(C2)N3C(=O)NC2CCCCC2)cc1 (centres undefined)
 : nt | -0.15
> CCC(C)Sc1nc2c([nH]c3ccccc32)c(=O)n1-c1ccccc1 (centres undefined)
 : -0.41 | -0.25
> COC(=O)c1ccc(CNCC(=O)Nc2ccc(C(=O)OC)cc2)cc1
 : nt | -0.25
> CC12CCC3C4CCC(=O)C=C4CCC3C1CCC2O (centres undefined)
 : -0.38 | 0.1
> Cc1cc(C)c(C#N)c(SCSc2ccccc2)n1
 : 0.015 | -0.1
> O=c1[nH]c(=S)n(-c2ccccc2)c(O)c1C=Nc1ccc(N2CCOCC2)c(Br)c1
 : -1.4 | 1
> CCOc1ccc(C(=O)NNC(=O)OCC(C)c2ccccc2)cc1 (centres undefined)
 : 0.46 | nt
> N#CCc1nc(-c2cccc(Cl)c2)n[nH]1
 : -0.59 | 0.85
> Cc1[nH]n(-c2ccccc2)c(=O)c1C=Nc1cc(Br)ccc1O
 : -0.33 | nt
> CC(NCc1ccc2c(c1)OCO2)C(=O)N1CCc2ccccc21 (centres undefined)
 : nt | -1
> O=C(Cn1c(=O)n(CC2CCC(C(=O)NCc3ccccc3)CC2)c(=O)c2ccccc21)NCc1ccco1 (centres undefined)
 : 0.29 | -0.3
> COc1cccc(CN(C)S(=O)(=O)c2ccc3c(c2)OCCO3)c1
 : nt | -0.3
> Cn1cc(C(=O)NC2CCCCCC2)c(=O)c2cc(S(=O)(=O)N3CCCCCC3)ccc21
 : -0.14 | 0.7
> O=C(CSc1ccc2nnc(-c3cccnc3)n2n1)NCc1ccccc1
 : nt | 1.4
> N#Cc1c2n(c(=O)[nH]c1=O)CCC2
 : nt | 0.35
> CC(=O)OCC12COC(c3ccc(N(C)C)cc3)C(C(C)=CC1C)C2C (centres undefined)
 : -0.3 | nt
> Cc1cccc(N2CCN(CC(O)CN3C(=O)c4ccccc4C3=O)CC2)c1 (centres undefined)
 : 0.08 | -0.8
> CCCN1CCC(N(C(=O)Nc2ccccc2C(=O)NCC2CCCO2)C2CC2)CC1 (centres undefined)
 : -0.46 | nt
> CC1Cc2ccccc2N1C(=O)COc1cccc(C#N)c1 (centres undefined)
 : nt | -0.9
> O=C1COc2ccc(C(=O)COC(=O)c3cccnc3)cc2N1
 : nt | -1.2
> Cc1oc(S(=O)(=O)N2CCCCC2)cc1C(=O)Nc1ccc(F)cc1
 : -0.05 | -0.7
> Cc1nnsc1C(=O)NCc1ccc(N2CCOCC2)cc1
 : -0.58 | 1.6
> CC(=O)OCc1csc(-c2ccc(Cl)cc2)n1
 : 0.62 | nt
> CC1CCCCC1NC(=O)CC1Oc2ccccc2NC1=O (centres undefined)
 : -0.14 | -0.1
> COc1ccc(-c2ccc[nH]2)cc1
 : 2.6 | -1.1
> CCOC(=O)c1cc2oc(C)cc2n1CCCN1C(=O)c2ccccc2C1=O
 : nt | 0.1
> COC(=O)c1ccc(N=C2SC(C(=O)NCCc3ccccc3)CC(=O)N2C)cc1 (centres undefined)
 : -0.61 | nt
> CCOc1ncccc1C(=O)N1CCCC1c1nc2ccccc2s1 (centres undefined)
 : nt | 0
> Cc1cccc(C(=O)NCCCN2CCCC2=O)c1
 : nt | 0.35
> CCCNC(=O)c1ccc(CS(=O)(=O)c2ccc(OC)cc2)o1
 : 1.1 | -0.95
> COc1cccc(C(=O)NCCc2cc3c(C)ccc(C)c3[nH]c2=O)c1OC
 : 0.56 | -0.8
> O=c1cc(C(F)(F)F)[nH]c2ccc(OC(F)(F)F)cc12
 : 62 | nt
> OC(CSc1ccc(Cl)cc1)CN1CCN(c2ccc(F)cc2)CC1 (centres undefined)
 : 0.16 | nt
> CCc1ccc(CCC(=O)Nc2sc3c(c2C(=O)OC)CCCC3)o1
 : 7.3 | -0.75
> CC(C)n1c(C(O)c2ccc3c(c2)OCO3)nc2ccccc21 (centres undefined)
 : -0.17 | 0.9
> N#Cc1c(-n2cccc2)sc2c1CCN(c1ccc([N+](=O)[O-])cc1)C2
 : 0.15 | nt
> COc1c2c(nc3occc13)C(CC=C(C)C)(OC)C(=O)C=C2 (centres undefined)
 : -2.3 | -0.75

# The results go on.
Compound,CapD inh,AID504770
CCOC(=O)c1c(NC(=O)c2ccc([N+](=O)[O-])cc2)sc(C(=O)Nc2ccc(C)c(Cl)c2)c1C,-0.37,nt
O=c1oc(-c2cccs2)nc2cccc(Cl)c12,0.46,1.1
O=C(Nc1ccc(F)c(Cl)c1)c1cc(S(=O)(=O)NCCc2ccccc2)ccc1F,-0.17,nt
N#CC(C#N)=C(N)/C(C#N)=C\c1ccc(-c2ccccc2)o1,nt,0.35
COc1cc(C=C2C(=O)NC(=O)NC2=O)ccc1OCc1ccc([N+](=O)[O-])cc1,0.29,nt
Cc1cccc(OCC(=O)Oc2cccc(NC3=NS(=O)(=O)c4ccccc43)c2)c1,0.24,nt
O=C(CSc1ncccc1C(F)(F)F)c1ccc(Cl)cc1,-0.82,0.1
CC(c1ccccc1)C1NC(C(=O)O)CS1 (centres undefined),0.47,-0.25
O=C(CC1(O)C(=O)N(Cc2ccccc2Cl)c2ccccc21)c1ccccn1 (centres undefined),0.03,-1
CCOC(=O)c1c(N)sc2c1CC(C)(C)OC2,0.4,0.05
COc1cccc(NC(=O)Nc2cc(C(F)(F)F)ccc2N2CCCC2)c1,0.34,-1.4
NNC(=O)CSc1nc2scc(-c3ccccc3)c2c(=O)n1-c1ccccc1,-0.33,nt
CCC(C)(O)CC(=O)NNC(=O)c1c(C)noc1-c1cc(C)on1 (centres undefined),-0.56,nt
CSC(SC)=C(C#N)C(=O)c1ccc(Cl)cc1,-0.49,-0.25
CCN=c1scc(-c2ccccc2)n1/N=C/c1ccccn1,nt,-1.8
CC(C)CN(CC(C)C)S(=O)(=O)N1CCC(C(=O)NC2CC2)CC1,0.19,-0.05
O=C(CN1CCN(Cc2ccccc2)CC1)N1CCOCC1,nt,0.1
CCc1cc(Br)ccc1NS(=O)(=O)CC,0.45,-0.45
CN(C)c1ccc(CNc2ncn[nH]2)cc1,nt,-1
O=C(NCc1ccco1)C1CC(c2ccc(Cl)cc2)=NO1 (centres undefined),-0.16,-0.8
O=C(CSc1ncnc2c1oc1ccccc12)Nc1nccs1,0.14,-0.25
COC(=O)c1cc(OC)c(OC)cc1NC(=O)C1CCCCC1,nt,1.9
CC12CC(NC(=S)N1c1ccccc1)c1ccccc1O2 (centres undefined),0.2,-0.15
Cc1nc2oc3ccc(F)cc3c(=O)c2cc1C(=O)NCc1ccccc1,-0.12,nt
NS(=O)(=O)c1ccc(O)c(N2C(=O)c3cccc4c(C(=O)c5ccccc5)ccc(c34)C2=O)c1,-0.45,nt
Cc1ccc(NC(=O)CSC2=NC(=O)CC(=O)N2)cc1,0.36,-1.4
O=C(O)c1ccc(N2C(=O)c3ccccc3C2=O)cc1,nt,1.8
Cc1ccc(C(=O)CSc2nnnn2-c2cccc(C)c2)cc1,0.03,-0.9
Cn1c(SCc2ccccc2Cl)nc2ccccc21,0.57,0.15
COc1ccc(-c2nc(CNS(=O)(=O)c3ccccc3F)cs2)cc1,-0.045,-1.2
Cc1cccc(CN2CCN(S(=O)(=O)c3ccc(S(C)(=O)=O)cc3)CC2)n1,-0.55,nt
COc1ccc(CNC2CCCC2)cc1O,-0.35,-0.35
Cc1ccc(C)c(C(=O)Cn2nc(C(=O)O)c3ccccc3c2=O)c1,nt,-0.8
O=C1C=CC(=O)N1c1ccc(C2CCCCC2)cc1,0.52,-0.2
O=C(CSc1ncccc1C(=O)O)NCCC1=CCCCC1,0.29,0.85
O=c1c(Cl)cc(C(F)(F)F)cn1-c1ncc(C(F)(F)F)cc1Cl,0.27,nt
C=CCn1cc(/C=N/N2C(=O)C3C4C=CC(C4)C3C2=O)c2ccccc21 (centres undefined),-0.24,-1.2
CC1=CC(C)(C)n2c(O)c(N=NC(N)=S)c3cc(C)cc1c32,0.22,0.4
COc1ccc(C(=O)CC(c2ccccc2)C2C(=O)CCCC2=O)cc1 (centres undefined),-0.65,-0.65
CCCCOc1ccc(C2(C)CC(=O)NC2=O)cc1 (centres undefined),nt,1.5
CCOC(=O)c1cc2sccc2nc1C(F)(F)F,-0.33,nt
Cc1oc(-c2cccs2)cc1C(=O)O,0.51,0.6
CCOc1ccc(NC(=O)CSc2nccn2-c2ccccc2)cc1,-0.82,-0.8

# Looked up by compound from the list above, 6 records:
Compound,CapD inh,AID504770
C=CCn1cc(/C=N/N2C(=O)C3C4C=CC(C4)C3C2=O)c2ccccc21 (centres undefined),-0.24,-1.2
CCCCOc1ccc(C2(C)CC(=O)NC2=O)cc1 (centres undefined),nt,1.5
CCOC(=O)c1cc2sccc2nc1C(F)(F)F,-0.33,nt
CCOc1ccc(NC(=O)CSc2nccn2-c2ccccc2)cc1,-0.82,-0.8
CC1=CC(C)(C)n2c(O)c(N=NC(N)=S)c3cc(C)cc1c32,0.22,0.4
Cc1oc(-c2cccs2)cc1C(=O)O,0.51,0.6

# Screening data from PubChem.
